SARS PLP yeast = SARS-CoV PLP inhibition in yeast; S. cerevisiae expressing SARS-CoV PLpro, growth rescue; control for the full effect not named in the record; Potency, µM (doses to about 32.9 µM), for the others: at the top dose activity, positive = growth rescue; 330,000 compounds, 0.19% hits; also: 0% is about no effect; nearly all actives have a fitted effect of over 55% in size; growth read by luminescence after 48 h
2A StopGo = lowers the luciferase signal of an FMDV 2A StopGo reporter. 410,000 compounds, 1.2% hits. Potency, µM (doses to about 57.9 µM), for the others: top-dose signal change, negative = less light. AID 1159524. human cells with a luciferase reporter of 2A StopGo recoding; control for the full effect not named in the record; active = well fitted falling curve with a large enough effect; inconclusive = small, poorly fitted or top-dose-only effect; inactive = no such curve, though single readings can be large or run the other way; tested in HEK293T cells; also: % is scaled to controls: 0 for no effect and ±100 for the full control effect; nearly all actives have a fitted effect of over 45% in size; luciferase light after 4 h
MARV entry inh = blocks Marburg virus binding to or entry into cells; AID 540276; 300,000 compounds, 1.8% hits; Potency, µM (highest dose often 37.8 µM), for inactives: top-dose activity change, negative = inhibition, most hits filed as inhibitors; Marburg virus pseudotyped entry inhibition, cell reporter; control for the full effect not named in the record; about a third of the inactives were read at about 46 µM; active = well fitted inhibition curve with a large enough effect; inconclusive = small, poorly fitted or top-dose-only effect, or effect the other way; inactive = flat fitted curve, though single readings scatter; tested in HEK293 cells; about a fifth of its hits are not listed in these tables; also: % is scaled to controls: 0 for no effect and ±100 for the full control effect; luciferase read-out
Cruzain inh noDet = cruzain (T. cruzi) inhibition without detergent. purified cruzain, Z-FR-AMC fluorescence, no detergent. Potency, µM, for inactives: max response, negative = inhibition, most hits filed as inhibitors. 200,000 compounds, 2.3% hits; active = well fitted curve in the direction sought with a large enough effect; inconclusive = small, poorly fitted or top-dose-only effect, or another doubt; inactive = no such curve, though single readings can be large; an effect the other way counts as inactive or inconclusive;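 also: plate controls were enzyme without inhibitor for no effect and buffer without enzyme for full effect; nearly all actives have a fitted effect of over 40% in size; top concentration of the series not given in the record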
Target sequence (P25779 123-467 limits assumed): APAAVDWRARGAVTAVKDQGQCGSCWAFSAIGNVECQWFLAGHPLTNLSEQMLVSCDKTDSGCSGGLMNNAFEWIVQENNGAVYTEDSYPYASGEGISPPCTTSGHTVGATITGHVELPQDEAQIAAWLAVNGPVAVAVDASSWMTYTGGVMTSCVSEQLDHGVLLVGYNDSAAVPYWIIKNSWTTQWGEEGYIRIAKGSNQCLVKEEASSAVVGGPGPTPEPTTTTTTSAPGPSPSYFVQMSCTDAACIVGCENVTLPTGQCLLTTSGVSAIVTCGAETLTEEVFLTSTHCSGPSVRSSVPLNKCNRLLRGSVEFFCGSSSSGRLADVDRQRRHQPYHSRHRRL
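Purified cruzain at 1.5 nM, pre-incubated 15 min with compound at room temperature in 100 mM sodium acetate pH 5.5, 5 mM DTT, 0.00005% Triton X-100. Reaction started with 2 uM Z-FR-AMC; AMC fluorescence increase over 60 s gives rate.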
NS1 function inh = influenza NS1 inhibition. S. cerevisiae slowed by influenza A NS1, growth recovery by OD600. Potency, µM (highest dose often 46.1 µM), for the others: top-dose activity, positive = more growth. 270,000 compounds, 0.4% hits; also: actives are rising curves; nearly all actives have a fitted effect of over 50% in size
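OD600 was taken as the measure of yeast growth restored by compound in an NS1-expressing S. cerevisiae strain. Cells had been washed out of glucose medium and diluted 1:100 into galactose -URA medium, pH 6.0.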
RE007 growth inh = less growth of the S. pombe RE007 Vpr strain | S. pombe RE007 Vpr strain, BacTiter-Glo ATP luminescence, 24 h; control for the full effect not named in the record | AID 651644 | 360,000 compounds, 0.21% hits | Potency, µM (highest dose often 92.2 µM), for the others: at the top dose activity change, negative = less growth; active = well fitted falling curve with a large enough effect; inconclusive = small, poorly fitted or top-dose-only effect; inactive = no such curve, though single readings can be large or run the other way;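 also: % is scaled to controls: 0 for no effect and ±100 for the full control effect; nearly all actives have a fitted effect of over 50% in size; the assay follows cell death caused by Vpr and the record does not say whether a fall means rescue or toxicity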
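Fission yeast strain RE007, carrying one chromosomally integrated HIV-1 vpr copy, was seeded at OD 0.01 in PMG+AL medium with 23 nL pinned compound. After 24 h at 30 °C and 99% humidity, viability was read by BacTiter-Glo luminescence.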
Lassa entry inh = blocks Lassa virus binding to or entry into cells | Lassa virus pseudotype entry inhibition, cell reporter; control for the full effect not named in the record | Potency, µM (doses to about 37.9 µM), inactives show at the top dose activity change, negative = inhibition, hits mostly inhibitors | 300,000 compounds, 1.2% hits | AID 540256; active means well fitted inhibition curve with a large enough effect; inconclusive means small, poorly fitted or top-dose-only effect, or effect the other way; inactive means flat fitted curve, though single readings scatter; tested in HEK293 cells; also: % is scaled to controls: 0 for no effect and ±100 for the full control effect; nearly all actives have a fitted effect of over 50% in size; luciferase read-out
Cruzain Triton = cruzain (T. cruzi) inhibition with detergent | P25779 | Potency, µM, for inactives: max response, negative = inhibition, most hits filed as inhibitors | 200,000 compounds, 0.43% hits | purified cruzain, Z-FR-AMC fluorescence, 0.01% Triton; active = well fitted curve in the direction sought with a large enough effect; inconclusive = small, poorly fitted or top-dose-only effect, or another doubt; inactive = no such curve, though single readings can be large; an effect the other way counts as inactive or inconclusive;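 also: plate controls were neutral wells for no effect and buffer without enzyme for full effect; nearly all actives have a fitted effect of over 40% in size; top concentration of the series not given in the record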
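Cruzain (1.5 nM) preincubated 15 min at RT with compound in 100 mM sodium acetate pH 5.5, 5 mM DTT, 0.01% Triton X-100. Reaction started with 2 uM Z-FR-AMC; AMC fluorescence (ex 360/em 450 nm) change over 60 s gave rate.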
An asterisk follows results filed as active; ? = inconclusive; nt = no result given; & = joins results of further samples; ! = not active in a repeat; [ ] = dose if it differs, or a comment. Unless noted, calls follow the shape of the dose curve; as a rule, active means well fitted rising curve with a large enough effect; inconclusive means small, poorly fitted or top-dose-only effect; inactive means no such curve, though single readings can be large or run the other way. Potency is read from the fitted curve at half-maximal effect.

SMILES	SARS PLP yeast	2A StopGo	MARV entry inh	Cruzain inh noDet	NS1 function inh	RE007 growth inh	Lassa entry inh	Cruzain Triton
CC12CCC(C(=O)Nc3nc4ccc(Br)cc4s3)(OC1=O)C2(C)C (configuration not stated)	-1%	24%	nt	nt	4%	-18%	nt	nt
Cc1nn(-c2ccccc2)nc1CNC(=O)c1ncoc1-c1ccccc1	-2%	?	nt	nt	-3%	21%	nt	nt
O=C(CCn1c(=O)c2ccccc2n(Cc2cccc([N+](=O)[O-])c2)c1=O)N1CCc2ccccc2C1	-2%	-12%	?	3%	5µM*	17%	?	-2.9%
O=C(COC(=O)c1ccccc1Br)NC1CCCCCCC1	-13%	23%	?	nt	nt	13%	13%	nt
CS(=O)(=O)N1N=C(c2ccccc2)CC1c1cccs1 (configuration not stated)	-1%	24%	7%	10%	-12%	-12%	25%	-7.6%
CSc1ccc(CN2CCC(n3nccc3NC(=O)C3CCOC3)CC2)cc1 (configuration not stated)	-1%	-7%	2%	nt	1%	3%	6%	nt
COC(=O)c1ccc(/C=N/Nc2nc3ccccc3[nH]2)cc1	-1%	8%	?	nt	-5%	-11%	-1%[46.1 µM]	nt
O=C(CC1SC(=Nc2ccc(OC(F)F)cc2)N(CCN2CCOCC2)C1=O)Nc1ccccc1 (configuration not stated)	-1%	2%	nt	nt	-2%	-10%	nt	nt
CN(/N=C/c1cccnc1)c1cnn(-c2ccc(F)c(Cl)c2)c(=O)c1Cl	0%	38%[activator]	?	-2%	0%	7%	-2%	-3.3%
Cc1ccc(S(=O)(=O)N2CCOCC2)cc1NC(=O)COC(=O)COc1ccccc1[N+](=O)[O-]	13%	-17%	8%[46.1 µM]	nt	nt	-8%	7%[46.1 µM]	nt
COc1ccc(C(=O)Nc2ccccc2C(=O)Nc2ccc(C(=O)O)cc2)cc1	-1%	17%	-24%	nt	-3%	3%	-20%	nt
CC(C)(C)C1CCC2(CC1)SCC(=O)N2c1ccccc1 (configuration not stated)	-1%	nt	7%	3%	?	5%	?	5.9%
COc1ccc(C(=O)c2ccccc2)c2c(O)ccc(C(=O)c3ccccc3)c12	-11%	13µM*	14µM*	?	21%	-9%	?	2.5%
COCCNS(=O)(=O)c1ccc2c(c1)n(C)c(=O)n2C	-2%	nt	-3%	-8%	5%	11%	1%	3.6%
O=C1/C(=C/c2ccccn2)COc2ccccc21	-3%	?	?	nt	-4%	-20%	?	nt
O=C(/C=C/c1ccc(F)cc1)NC(=S)NNC(=O)c1cnccn1	19%	-5%	?	nt	2%	23%	?	nt
CCOC(=O)c1c(S(=O)(=O)NCC(=O)Nc2ccc(F)cc2)c(C)n(C)c1C	2%	20%	nt	nt	3%	-14%	nt	nt
CCOC(=O)c1c(C)[nH]c(C)c1S(=O)(=O)NCC(=O)Nc1cccc(Cl)c1	nt	33%[activator]	nt	-8%	nt	nt	-16%[46.1 µM]	-1.4%
COC(=O)c1ccc(-c2nc3cc(NC(C)=O)ccc3o2)cc1	nt	21%	nt	6%	nt	nt	2%[46.1 µM]	-1.2%
COc1ccccc1NC(=O)CN1C(=O)c2ccccc2Sc2ccc(C(=O)N3CCCC3)cc21	nt	-11%	nt	4%	nt	nt	2%[46.1 µM]	-4.4%
c1ccc(C2CC(c3cccs3)n3nnnc3N2)cc1 (configuration not stated)	-5%	-15%	-1%	3%	-2%	-7%	0%	2.4%
COc1ccccc1OCC(=O)Nc1ccc(NC(=O)COc2ccccc2OC)cc1	3%	-25%	?	nt	16%	11%	5%[46.1 µM]	nt
CCOC(=O)c1ccccc1NC(=O)CSc1nnc(COc2ccccc2)n1CC	0%	?	3%&-5%	5%	-60%	3%[3.69 µM]	-3%	-3.1%
CCN1CCN(S(=O)(=O)c2cc3c(cc2Cl)NC(=O)CO3)CC1	-1%	0%	nt	nt	-7%	-13%	nt	nt
CCOC(=O)c1noc2ncnc(Nc3ccc(C)c(F)c3)c12	nt	-22%	nt	-4%	nt	nt	11%[46.1 µM]	-2.5%
Cc1ccc(COc2ccc(/C=N/NC(=O)c3ccc(CN4CCOCC4)cc3)cc2)cc1	-10%	-1%	?	-1%	-12%	-1%	?	-1.7%
Cc1cc2nc(-c3ccc(SCc4ccc(C(=O)O)cc4)nc3)[nH]c2cc1C	-1%	50%[activator]	5.6µM*	nt	-5%	-1%	?	nt
CCOC(=O)CNC(=O)Nc1cc(C(=O)NCc2cccc(F)c2)ccc1N1CCCC1	nt	-1%	nt	?	nt	nt	3%[46.1 µM]	-7.6%
Cn1cnnc1SCc1nc(N)nc(Nc2ccccc2)n1	-1%	65%[activator]	?	-11%	12%	9%	14%	2.4%
CN=C1S/C(=C\c2ccc(N3CCCC3)c(F)c2)C(=O)N1C	0%	9%	5%[46.1 µM]	nt	3%	7%	16%[46.1 µM]	nt
CC(C)CC(NC(=O)C1CCCCC1)C(=O)NC(C)c1ccccc1 (configuration not stated)	-1%	42%[activator]	-22%	nt	4%	-7%	?	nt
O=C(CSc1ccc(F)cc1)NNC(=O)c1ccccc1Br	5%	-6%	7%[46.1 µM]	nt	4%	0%	1%	nt
COc1ccc(-c2nc(C)c(CCNC(=O)C(=O)Nc3c(C)cccc3C)s2)cc1OC	nt	-21%	nt	?	nt	nt	?	0.4%
Cc1cc(O)c(C(C)C)cc1NS(=O)(=O)c1ccccc1	-1%	0%	7%	2%	9%	10%	10%	-2.9%
CN(CC(=O)NC(=O)NCc1ccco1)CC(=O)Nc1ccccc1Cl	0%	-7%	nt	nt	4%	1%	nt	nt
CCOc1ccccc1/C=N/Nc1ccccc1[N+](=O)[O-]	1%	26%	25%	-3%	3%	-11%	25%	-7.1%
COc1ccc(C2CC(C)=C(C#N)S(=O)(=O)C2C#N)cc1 (configuration not stated)	2%	-9%	?	nt	8%	5%	?	nt
Cc1cc(/C=C(\C#N)C(=O)Nc2ccc(F)cc2)c(C)n1-c1ccc(N2CCOCC2)c([N+](=O)[O-])c1	2%	?	?	?	3%	-4%	-34%	-2.7%
CN=C(c1ccco1)n1c(=S)nc(-c2ccco2)n(C)c1=S	4%	7%	-2%[46.1 µM]	-24%	-12%	-3%	7%	-14%
O=C(/C=C/c1cc([N+](=O)[O-])ccc1OC(F)F)NCc1ccc(F)cc1	3%	-11%	7%[46.1 µM]	-12%	1%	-9%	0%	3.6%

A run of entries of the results above, for reference:
SMILES	SARS PLP yeast	2A StopGo	MARV entry inh	Cruzain inh noDet	NS1 function inh	RE007 growth inh	Lassa entry inh	Cruzain Triton
CN=C(c1ccco1)n1c(=S)nc(-c2ccco2)n(C)c1=S	4%	7%	-2%[46.1 µM]	-24%	-12%	-3%	7%	-14%
O=C(/C=C/c1cc([N+](=O)[O-])ccc1OC(F)F)NCc1ccc(F)cc1	3%	-11%	7%[46.1 µM]	-12%	1%	-9%	0%	3.6%

Next compounds follow:
SMILES	SARS PLP yeast	2A StopGo	MARV entry inh	Cruzain inh noDet	NS1 function inh	RE007 growth inh	Lassa entry inh	Cruzain Triton
CCS(=O)(=O)c1ccc2c(c1)NC(=O)C(CCCl)O2 (configuration not stated)	-1%	-15%	3%[46.1 µM]	nt	0%	14%	-7%	nt
COC(=O)C1CSc2[nH]c(=O)sc2C1c1ccccc1 (configuration not stated)	1%	-6%	0%	0%	-4%	-4%	-7%	7.1%
Cc1ccc(N(C(=O)c2ccco2)C(C(=O)NC2CCCC2)c2cccnc2)cc1C (configuration not stated)	-1%	-22%	-5%[46.1 µM]	nt	0%	-23%	?	nt
COc1cccc(N2CCN(C(=O)c3ccc(NC(=O)c4nsc5ccccc45)cc3)CC2)c1	nt	-19%	nt	-23%	nt	nt	?	-0.7%
N#Cc1c(C(F)(F)F)cc(-c2cccs2)nc1SCc1cccnc1	2%	nt	?	?	-8%	3%	?	32µM*
CC(C)Cc1nnc(NC(=O)c2ccc3c(c2)NC(=O)C(C)S3)s1 (configuration not stated)	-1%	-4%	1%[46.1 µM]	nt	nt	-12%	11%	nt
COc1ccc(OCC(O)CNCCNc2nccc(C(F)(F)F)n2)cc1 (configuration not stated)	2%	-13%	-11%	nt	5%	29%	?	nt
Cc1ccc(CNC(=O)Cc2coc3cc(C)cc(C)c23)cc1	nt	-5%	?	-25%	nt	nt	11%[46.1 µM]	3.4%
Cc1cccc(C)c1NC(=O)CCS(=O)(=O)c1ccc(Br)cc1	0%	-17%	?	nt	5%	0%	-7%[46.1 µM]	nt
O=C(COc1ccc([N+](=O)[O-])cc1)Nc1cccnc1	0%	21%	?	nt	2%	-8%	1%	nt
CC(C)CC(NS(=O)(=O)c1ccc2c(c1)oc(=O)n2C)C(=O)NC1CCCc2ccccc21 (configuration not stated)	-4%	-13%	-4%	?	?	0%	nt	5.2%
COc1ccc2[nH]c(=O)c(CN(Cc3cccs3)Cc3nnnn3C(C)(C)C)cc2c1	7%	-28%	18µM*!	3%	-30%	-5%	-15%	-5.3%
CCOC(=O)c1cnc2ccc(OC)cc2c1NCCc1ccccc1	nt	?	nt	-1%	nt	nt	3%[46.1 µM]	-13%
COC(=O)c1cc(COc2ccc3oc(C)c(C(=O)OC)c3c2)c(C)o1	-5%	?	?	?	-46%	10%	-14%	-5.5%
O=c1c2ccccc2nnn1Cc1ccc(F)cc1	2%	-3%	1%	nt	nt	13%	?	nt
CCc1ccc(-c2nnn(CCC(=O)OC)n2)cc1	10%	15%	?	5%	4%	7%	-21%	3.6%
CS(=O)(=O)N1CCN(C(=O)Cc2cccs2)CC1	-6%	-8%	3%	-11%	0%	-10%	1%	-0.2%
CCN(CC(=O)N1CCC(C)CC1)S(=O)(=O)c1ccc(C)cc1	-1%	4%	3%	nt	2%	9%	-1%	nt
Cc1cccc(C)c1NC(=O)C(NC=O)c1ccccc1Cl (configuration not stated)	-13%	-13%	5%	-2%	12%	2%	-1%	0.5%
CSc1ncccc1C(=O)NCC(c1cccs1)N1CCOCC1 (configuration not stated)	-4%	-2%	1%	nt	nt	-6%	-1%	nt
NS(=O)(=O)c1ccc(N/N=C/c2ccc(O)cc2O)c([N+](=O)[O-])c1	-2%	1%	nt	nt	1%	3%	nt	nt
